MARV entry inh = inhibitors of Marburg virus binding or cell entry. Marburg virus pseudotyped entry inhibition, cell reporter; control for the full effect not named in the record; about a third of the inactives were read at about 46 µM. Potency, µM (series often up to 37.8 µM), for the others: at the highest dose activity change, negative = inhibition, actives largely listed as inhibitors. actives 1.8% (n = 300,000); active = well fitted inhibition curve with a large enough effect; inconclusive = small, poorly fitted or top-dose-only effect, or effect the other way; inactive = flat fitted curve, though single readings scatter; tested in HEK293 cells; about a fifth of its hits are not listed in these tables; also: % is scaled to controls: 0 for no effect and ±100 for the full control effect; luciferase read-out
Cruzain Triton = blocks cruzain activity in presence of Triton detergent; purified cruzain, Z-FR-AMC fluorescence, 0.01% Triton; Potency, µM, for inactives: max response, negative = inhibition, usual class: inhibitors; actives 0.43% (n = 200,000);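 also: plate controls were neutral wells for no effect and buffer without enzyme for full effect; nearly all actives have a fitted effect of over 40% in size; top concentration of the series not given in the record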
Target sequence (P25779 123-467 limits assumed): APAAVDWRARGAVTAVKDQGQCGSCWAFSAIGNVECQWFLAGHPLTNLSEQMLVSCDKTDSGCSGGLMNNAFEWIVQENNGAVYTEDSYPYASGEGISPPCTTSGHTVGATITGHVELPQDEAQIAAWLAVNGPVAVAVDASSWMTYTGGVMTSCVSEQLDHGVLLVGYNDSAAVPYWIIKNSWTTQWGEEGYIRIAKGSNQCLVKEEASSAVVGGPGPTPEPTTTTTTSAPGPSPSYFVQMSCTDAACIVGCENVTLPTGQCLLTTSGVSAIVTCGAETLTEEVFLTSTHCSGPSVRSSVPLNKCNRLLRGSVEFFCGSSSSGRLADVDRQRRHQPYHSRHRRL
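Cruzain (1.5 nM) preincubated 15 min at RT with compound in 100 mM sodium acetate pH 5.5, 5 mM DTT, 0.01% Triton X-100. Reaction started with 2 uM Z-FR-AMC; AMC fluorescence (ex 360/em 450 nm) change over 60 s gave rate.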
RE007 growth inh = less growth of the S. pombe RE007 Vpr strain. S. pombe RE007 Vpr strain, BacTiter-Glo ATP luminescence, 24 h; control for the full effect not named in the record. Potency, µM (doses to about 92.2 µM), without a hit: at the top dose activity change, negative = less growth. actives 0.21% (n = 360,000). AID 651644; active = well fitted falling curve with a large enough effect; inconclusive = small, poorly fitted or top-dose-only effect; inactive = no such curve, though single readings can be large or run the other way;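 also: % is scaled to controls: 0 for no effect and ±100 for the full control effect; nearly all actives have a fitted effect of over 50% in size; the assay follows cell death caused by Vpr and the record does not say whether a fall means rescue or toxicity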
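Fission yeast RE007 carrying one integrated HIV-1 vpr copy, seeded at OD 0.01 in PMG+AL medium with 23 nL pinned compound. Grown 24 h at 30 degrees; viability read by BacTiter-Glo luminescence after 5 min.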
SARS PLpro yeast = inhibitors of SARS-CoV papain-like protease in yeast; S. cerevisiae expressing SARS-CoV PLpro, growth rescue; control for the full effect not named in the record; Potency, µM (doses to about 32.9 µM), without a hit: at the highest dose activity, positive = growth rescue; actives 0.19% (n = 330,000); active means well fitted rising curve with a large enough effect; inconclusive means small, poorly fitted or top-dose-only effect; inactive means no such curve, though single readings can be large or run the other way; also: 0% is about no effect; nearly all actives have a fitted effect of over 55% in size; growth read by luminescence after 48 h
StopGo reporter = FMDV 2A StopGo reporter, luciferase signal. human cells with a luciferase reporter of 2A StopGo recoding; control for the full effect not named in the record. Potency, µM (titrated, usually from 57.9 µM), for the others: top-dose signal change, negative = less light. actives 1.2% (n = 410,000); active = well fitted falling curve with a large enough effect; inconclusive = small, poorly fitted or top-dose-only effect; inactive = no such curve, though single readings can be large or run the other way; tested in HEK293T cells; also: % is scaled to controls: 0 for no effect and ±100 for the full control effect; nearly all actives have a fitted effect of over 45% in size; luciferase light after 4 h
Cruzain noTriton = inhibitors of Trypanosoma cruzi cruzain without detergent. actives 2.3% (n = 200,000). purified cruzain, Z-FR-AMC fluorescence, no detergent. AID 1476. Potency, µM, inactives show max response, negative = inhibition, actives largely listed as inhibitors. P25779;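 also: plate controls were enzyme without inhibitor for no effect and buffer without enzyme for full effect; nearly all actives have a fitted effect of over 40% in size; top concentration of the series not given in the record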
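Detergent-free condition (0.00005% Triton X-100) in acetate buffer pH 5.5 with DTT. 1.5 nM enzyme and compound were pre-mixed 15 min, then 2 uM Z-FR-AMC substrate added; reaction progress from fluorescence change between first and third reads (60 s).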
Starred values were filed as active, the others as inactive; ? = inconclusive; / = not tested or not shown; & = joins results of further samples; ! = a repeat was not active; [ ] = remark or other dose. Unless noted, calls follow the shape of the dose curve; as a rule, active = well fitted curve in the direction sought with a large enough effect; inconclusive = small, poorly fitted or top-dose-only effect, or another doubt; inactive = no such curve, though single readings can be large; an effect the other way counts as inactive or inconclusive. Potency is read from the fitted curve at half-maximal effect.

The first 4 records as a preview:
no.	SMILES	MARV entry inh	Cruzain Triton	RE007 growth inh
1	Cn1c(=O)c(-c2ccc(F)cc2)nc2cncnc21	/	-1.6%	/
2	COc1ccccc1CN1CCCC2(CCN(C(=O)c3cccc(F)c3)CC2)C1	/	3.0%	/
3	CC1(C)C(=O)C2C[C@]3(O)C4=CC(=O)OC(c5ccoc5)[C@]4(C)CCC3[C@](C)(C2=O)C1CC(=O)O (stereo partly drawn)	/	1.9%	/
4	COc1ccc(CNc2ncncc2-c2ccoc2)c(OC)c1	/	-7.7%	/

no.	SARS PLpro yeast	StopGo reporter	Cruzain noTriton
1	/	-8%	-3%
2	/	-5%	-3%
3	/	5%	-6%
4	/	-25%	-11%

The whole of this part, previewed entries included:
no.	SMILES	MARV entry inh	Cruzain Triton	RE007 growth inh
1	Cn1c(=O)c(-c2ccc(F)cc2)nc2cncnc21	/	-1.6%	/
2	COc1ccccc1CN1CCCC2(CCN(C(=O)c3cccc(F)c3)CC2)C1	/	3.0%	/
3	CC1(C)C(=O)C2C[C@]3(O)C4=CC(=O)OC(c5ccoc5)[C@]4(C)CCC3[C@](C)(C2=O)C1CC(=O)O (stereo partly drawn)	/	1.9%	/
4	COc1ccc(CNc2ncncc2-c2ccoc2)c(OC)c1	/	-7.7%	/
5	O=c1cnc2cnc(OCc3ccccc3)nc2n1Cc1ccc(F)cc1	/	1.8%	/
6	CC(=O)N[C@@H](CSC/C=C(\C)CC/C=C(\C)CC/C=C(\C)CCC=C(C)C)C(=O)O	/	1.3%	/
7	CS(=O)(=O)N1CCC2(CCCN(C(=O)Nc3cccc(C#N)c3)C2)CC1	/	6.3%	/
8	OCc1ccc(-c2ccc(-c3ccc(CO)s3)o2)s1	/	-20%	/
9	COc1ccc(C(=O)c2ccc(O)cc2)c(O)c1O	/	-0.9%	/
10	O=C(c1cccc(F)c1)N1CCC2(CC1)CCN(c1ncccn1)CC2	/	-1.2%	/
11	Cc1noc(C)c1-c1cncnc1NCc1cccnc1	/	13%	/
12	O=C(CCc1ccc(O)cc1)c1c(O)cc(O)cc1O[C@H]1OC(CO)C(O)C(O)C1O (stereo partly drawn)	/	5.2%	/

no.	SARS PLpro yeast	StopGo reporter	Cruzain noTriton
1	/	-8%	-3%
2	/	-5%	-3%
3	/	5%	-6%
4	/	-25%	-11%
5	/	-23%	-4%
6	/	-21%[6.7 µM]	16%
7	/	-6%	1%
8	/	11%	?
9	/	28%	-11%
10	/	?	14%
11	/	-15%	9%
12	/	4%	2%

Other records follow:
no.	SMILES	MARV entry inh	Cruzain Triton	RE007 growth inh
13	O=c1c(-c2ccc(F)cc2)nc2cnc(Oc3cccc(Cl)c3)nc2n1C[C@H]1CCCO1	/	-3.4%	/
14	COc1ccc2c(c1)OCC(Cc1ccc(OC)c(O)c1)C2=O (stereo not drawn)	/	1.1%	/
15	O=C(Nc1cccc(F)c1)N1CCCC2(CCNCC2)C1	/	2.5%	/
16	CC1(C)C(O)CC(O)[C@]2(C)C1CC(O)[C@]1(C)C2CC[C@@]2(C)C(c3ccoc3)OC(=O)C3O[C@]312 (stereo partly drawn)	/	4.4%	/
17	COc1ccc(NC(=O)N2CC[C@@]3(CCCN(C(=O)c4ccco4)C3)C2)cc1	/	1.2%	/
18	COc1ccc2[nH]c(I)c(CCNC(C)=O)c2c1	/	-1.2%	/
19	N#CCCn1c(=O)c(CCc2ccccc2)nc2cnc(OCc3ccccc3)nc21	/	-0.7%	/
20	Cc1nc(N=Nc2cc(S(=O)(=O)O)ccc2S(=O)(=O)O)c(COP(=O)(O)O)c(C=O)c1O	/	-1.1%	/
21	CC(=O)NCCNc1nc(-c2ccc(C(=O)N(C)C)cc2)nc2ccccc12	/	-2.4%	/
22	N#Cc1ccc(CN2CC3(CCN(C(=O)c4ccncc4)CC3)C2)cc1	/	3.1%	/
23	CC(C)c1c(O)c(-c2cc3c(c(C(C)C)c2O)CCC2C(C)(C)CCC[C@@]32C)cc2c1CCC1C(C)(C)CCC[C@@]21C (stereo partly drawn)	/	7.1%	/
24	Cc1ccccc1-c1ccc2ncnc(NCc3cccs3)c2c1	/	?	/

no.	SARS PLpro yeast	StopGo reporter	Cruzain noTriton
13	/	6%	-14%
14	/	11%	-8%
15	/	4%	0%
16	/	-19%	?
17	/	-12%	-2%
18	/	-17%&-20%	2%
19	/	-15%	10%
20	/	-13%	-1%
21	/	34%[activator]	4%
22	/	2%	-3%
23	/	-6%	-11%
24	/	-12%	-5%

Going on with the list.
no.	SMILES	MARV entry inh	Cruzain Triton	RE007 growth inh
25	COc1ncc2nc(-c3ccccc3)c(=O)n(CCc3ccccc3)c2n1	/	-6.1%	/
26	O=C(O)C1=CC(O)[C@@H](O)C(O)C1 (stereo partly drawn)	/	2.5%	/
27	CC(C)[C@H](CO)Nc1nc(Nc2cc(N)cc(Cl)c2)c2ncn(C(C)C)c2n1	/	-8.4%	/
28	FC(F)(F)c1ccccc1-c1nccc(NCc2ccccc2)n1	/	-2.2%	/
29	COCCn1c(=O)c(-c2cccc(C#N)c2)nc2cnc(Oc3cccc(Cl)c3)nc21	/	-2.7%	/
30	COC(=O)N1CCC2(CCCN(C(=O)Nc3cccc(F)c3)C2)CC1	/	1.7%	/
31	CS(=O)(=O)Nc1cccc(-c2nc(N3CCOCC3)c3ccccc3n2)c1	/	1.0%	/
32	O=c1cccc2n1CC1CC2CN2CCCCC12 (stereo not drawn)	/	3.8%	/
33	c1ccc(CNc2ncncc2-c2ccc3c(c2)OCO3)cc1	/	1.2%	/
34	COC(=O)N1CCC[C@@]2(CCN(C(=O)Nc3ccc(OC)cc3)C2)C1	/	-1.7%	/
35	O=C1C=CC[C@@H]2[C@H]3CCCN4CCC[C@@H](CN12)[C@@H]34	/	2.5%	/
36	O=C1C=CC(=O)c2c(O)cccc21	/	-20%	/

no.	SARS PLpro yeast	StopGo reporter	Cruzain noTriton
25	/	-7%	-7%
26	/	-4%	-1%
27	/	-25%	22%
28	/	-13%	18%
29	/	-14%	-9%
30	/	-16%	4%
31	/	-6%	3%
32	/	-6%	-8%
33	/	-1%	-1%
34	/	-6%	9%
35	/	-17%	-17%
36	/	1%	7.9µM*

(more compounds)
no.	SMILES	MARV entry inh	Cruzain Triton	RE007 growth inh
37	COc1ccccc1CNc1ncnc2ccc(-c3ccc4c(c3)OCO4)cc12	/	-5.5%	/
38	COc1cc(O)c(C(=O)/C=C/c2ccc(O)c(OC)c2)c(OC)c1	/	-3.1%	/
39	COc1ccccc1CN1CC[C@@]2(CCCN(C(=O)c3cccn3C)C2)C1	/	-2.0%	/
40	COc1ncc2nc(C)c(=O)n(Cc3cccs3)c2n1	/	0.1%	/
41	CNc1ncncc1-c1ccccc1CN(C)C	/	3.8%	/
42	O=C(c1c(O)c2ccc(Cl)cc2[nH]c1=O)C1CC1	/	-2.9%	/
43	COc1cccc(Nc2ncc3nc(-c4cn(C)c5ccccc45)c(=O)n(CCC#N)c3n2)c1	/	3.6%	/
44	COCCNc1nc(-c2ccoc2)nc2ccccc12	/	4.0%	/
45	COc1ccccc1CN1CCCC2(CCN(C(C)=O)CC2)C1	/	2.5%	/
46	CS(=O)(=O)N1CCC2(CCCN(c3ccncc3)C2)CC1	/	2.1%	/
47	COCCn1c(=O)c(-c2cc(F)cc(F)c2)nc2cnc(Nc3cccc(OC)c3)nc21	/	0.2%	/
48	c1ccc([C@H]2CNCc3ccccc32)cc1	/	2.2%	/

no.	SARS PLpro yeast	StopGo reporter	Cruzain noTriton
37	/	-4%	?
38	/	?	7%
39	/	-11%	37%
40	/	-10%	-8%
41	/	-7%	2%
42	/	0%&-13%	3%
43	/	-28%	-23%
44	/	-12%	-12%
45	/	-4%	-7%
46	/	-7%	2%
47	/	-8%	-1%
48	/	-5%	5%

Next section.
no.	SMILES	MARV entry inh	Cruzain Triton	RE007 growth inh
49	COc1ccc(C(=O)N2CCC3(CC2)CN(c2ccccc2)C3)cc1	/	-4.6%	/
50	CCCCC/C=C\C/C=C\C/C=C\C/C=C\CCCCCC(=O)O	/	0.7%	/
51	O=C(c1cccc(F)c1)N1CCC2(CC1)CN(c1ccncc1)C2	/	1.3%	/
52	FC(F)(F)c1ccccc1-c1ccc2ncnc(NCc3cccnc3)c2c1	/	1.3%	/
53	O=C(c1cc(C(F)(F)F)cc(C(F)(F)F)c1)N1CCC2(CCCN(c3ncccn3)C2)CC1	/	-6.6%	/
54	COc1ccc(-n2c(=O)c(-c3ccc(F)cc3)nc3cncnc32)cc1	/	4.5%	/
55	COc1ccc(-n2c(=O)c(-c3ccc(F)cc3)nc3cnc(N4CCOCC4)nc32)cc1	/	1.4%	/
56	CC(O)C1C=CC=CC(=O)OC2CC3OC4C5OC5(C)CCC4(COC(=O)C4OC4(C)C(O)CO1)C2(C)C31CO1 (stereo not drawn)	?	/	0%
57	CCC(=O)NC(c1cc(Cl)c2cccnc2c1O)C(C)C (stereo not drawn)	/	/	/
58	C=CCNc1oc(-c2ccc(-c3ccccc3)cc2)nc1C#N	/	/	/
59	CN(C)C1CCN(Cc2cc(COCc3ccccc3)c3cccnc3c2O)C1 (stereo not drawn)	/	/	/
60	Cc1nc(SCc2nc3ccc([N+](=O)[O-])cc3[nH]2)c2oc3ccccc3c2n1	/	/	/

no.	SARS PLpro yeast	StopGo reporter	Cruzain noTriton
49	/	-26%	11%
50	/	21%[6.7 µM]	6%
51	/	-2%	0%
52	/	-23%	6%
53	/	-16%	?
54	/	2%	0%
55	/	0%	-3%
56	/	/	/
57	3%&7%	-25%	/
58	9%	-21%	/
59	10µM*!	-21%	/
60	7%	?	/

Next part:
no.	SMILES	MARV entry inh	Cruzain Triton	RE007 growth inh
61	CN1CCN(c2cc(-c3cc(O)c4ncccc4c3)ccn2)CC1	/	/	/
62	Cn1nnnc1Sc1ncnc2scc(-c3cc4ccccc4o3)c12	/	/	/
63	CN1CCN(C2CCN(Cc3ccc(O)c4ncccc34)CC2)CC1	/	/	/
64	O=S(=O)(NCCCNS(=O)(=O)c1c(F)cccc1F)c1ccc2c(c1)OCCO2	/	/	/
65	O=C(COC(=O)CNC(=O)c1ccccc1Cl)Nc1cc(C(F)(F)F)ccc1Cl	/	/	/
66	N#Cc1nc(Nc2cc(F)cc(F)c2)c2ncn(CC(F)F)c2n1	/	/	/
67	Cc1nc(SCc2nc3c([N+](=O)[O-])cccc3[nH]2)c2oc3ccccc3c2n1	/	/	/
68	Oc1cc(-c2ccncc2)cc2cccnc12	/	/	/
69	COc1cccc(-c2csc3ncnc(Sc4nnnn4C)c23)c1	/	/	/

no.	SARS PLpro yeast	StopGo reporter	Cruzain noTriton
61	1%&-4%	-27%	/
62	0%	18µM*	/
63	?	0%	/
64	-30%	20%	/
65	3%	9%	/
66	14%	-18%	/
67	1%	-7%	/
68	4%&-3%	-5%	/
69	0%	20µM*	/

Not all compounds are listed, so the mix of outcomes need not match the whole.
